High-throughput results: PubChem, several laboratories
PrP UTR inh = suppresses PrP 5' UTR mRNA reporter expression | actives 0.35% (n = 340,000) | inhibition, % (concentration not given with the values) | cell-based PrP 5' UTR mRNA reporter, plate reader;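 active means every replicate at 50% or more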;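 further: 0 = median of the neutral control wells; tested in H4 reporter cells; numbers are from one replicate; inactives centre near -14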
Autofluor counter = counter-screen for toxin protease inhibitors: compound fluorescence; fluorescence intensity (test concentration not listed); compound autofluorescence counterscreen, microsphere flow cytometry; active compounds read high; actives 3.1% (n = 360,000);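 active means at least 3 SD above the mean of all compounds, about 16000 in these data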;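 further: 100 nL of 1 mM stock went into each well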
* hit, by the source's call.

SMILES	PrP UTR inh	Autofluor counter
Cc1ccccc1N1CCN(c2ccccc2NC(=O)/C=C\C(=O)O)CC1	-31	3947
Nc1nc(=S)c2[nH]cnc2[nH]1	38	5191
Nc1[nH]c(=O)nc2snnc12	2	3545
CC[C@H]1OC(=O)C[C@@H](O)[C@H](C)[C@@H](O[C@@H]2O[C@H](C)[C@@H](O[C@H]3C[C@@](C)(O)[C@@H](O)[C@H](C)O3)[C@H](N(C)C)[C@H]2O)[C@@H](CC=O)C[C@@H](C)C(=O)/C=C/C(C)=C/[C@@H]1CO[C@@H]1O[C@H](C)[C@@H](O)[C@@H](OC)[C@H]1OC	-53	5305
O=[N+]([O-])c1cc2no[n+]([O-])c2cc1N1CCCCC1	-4	3477
C/C(=N\NC(=O)c1nnn(-c2nonc2N)c1-c1ccccc1)c1cccnc1	-26	5193
CCOP(=O)(Nc1cccc2oc(=O)c3ccccc3c12)OCC	-5	4129
CN=c1scc(-c2ccc(OC)cc2)n1/N=C(\C)c1cccnc1	-49	5071
O=S(=O)(CS(=O)(=O)Oc1ccccc1)Oc1ccccc1	-18	4142
Cc1cc(NC(=O)c2cc3ccccc3o2)no1	-13	4023
Cc1ccc(CNCCCn2cnc(C(=O)Nc3ccc(C)c(C)c3)n2)o1	-12	3860
O=c1ccn(Cc2ccccc2)c(SCc2ccccc2)n1	-14	4189
Cc1cccc(NC(=O)c2ccc(NS(=O)(=O)c3cccc4cccnc34)cc2)c1	-15	4620
C[C@@H]1O[C@@H](O[C@@H]2C=C3CCC4C(CC[C@]5(C)[C@@H](c6ccc(=O)oc6)CC[C@]45O)[C@@]3(C)CC2)[C@H](O)[C@H](O)[C@H]1O (stereo partly specified)	94*	5084
COc1ccc(OCc2ccc(/C=N\NC(=O)c3sccc3C)o2)cc1	-25	5852
Nc1nonc1C(=O)N/N=C\c1cc2c(cc1Cl)OCO2	-8	5895
CC(NC(=O)Cc1ccc(S(=O)(=O)N2CCCCC2)cc1)c1ccccc1 (stereo unspecified)	7	3955
COc1ccc(N=C2C(=S)N(c3ccc(OC)cc3)C(=NS(=O)(=O)c3ccccc3)N2c2ccccc2)cc1	-51	4077
OCC[C@H]1C[C@H](O)[C@@H](O)[C@]2(Cc3ccccc3CCO2)O1	-27	4424
C=CC[C@H](CC(=O)N(CCO)Cc1ccccc1)C(=O)N[C@@H](COC(=O)[C@@H](CC=C)Cc1ccc(F)cc1)Cc1ccccc1	-18	4580
O=C1N[C@H](Cc2ccccc2)COC(=O)[C@@H](Cc2ccc(F)cc2)CC/C=C/C[C@H]1CC(=O)N(CCO)Cc1ccccc1	-24	3406
C#CCOCCOCCOCCNc1nc(N2CCN(C(=O)[C@H](CC(N)=O)n3cc(C(N)[C@H](C)CC)nn3)CC2)nc(N2CCN(C(=O)[C@H](CC(N)=O)n3cc(C(N)[C@@H](C)CC)nn3)CC2)n1 (stereo partly specified)	-26	3895
Cc1ccc(C2(c3ccccc3)NC(=O)N(CC(=O)NCc3ccco3)C2=O)cc1C (stereo unspecified)	5	3149
O=C(NCCc1ccccc1)c1ccc(NC(=O)C2CCC2)cc1	-51	2966
CC1c2ccccc2-n2nncc2CN1CC1CCCCC1 (stereo unspecified)	-3	3543

Quoted from the listing.
CCOP(=O)(Nc1cccc2oc(=O)c3ccccc3c12)OCC – Autofluor counter = 4129
COc1ccc(N=C2C(=S)N(c3ccc(OC)cc3)C(=NS(=O)(=O)c3ccccc3)N2c2ccccc2)cc1 – Autofluor counter = 4077
CN=c1scc(-c2ccc(OC)cc2)n1/N=C(\C)c1cccnc1 – Autofluor counter = 5071
OCC[C@H]1C[C@H](O)[C@@H](O)[C@]2(Cc3ccccc3CCO2)O1 – Autofluor counter = 4424

Back to the main list; the 7 compounds before the break are reprinted first.
SMILES	PrP UTR inh	Autofluor counter
OCC[C@H]1C[C@H](O)[C@@H](O)[C@]2(Cc3ccccc3CCO2)O1	-27	4424
C=CC[C@H](CC(=O)N(CCO)Cc1ccccc1)C(=O)N[C@@H](COC(=O)[C@@H](CC=C)Cc1ccc(F)cc1)Cc1ccccc1	-18	4580
O=C1N[C@H](Cc2ccccc2)COC(=O)[C@@H](Cc2ccc(F)cc2)CC/C=C/C[C@H]1CC(=O)N(CCO)Cc1ccccc1	-24	3406
C#CCOCCOCCOCCNc1nc(N2CCN(C(=O)[C@H](CC(N)=O)n3cc(C(N)[C@H](C)CC)nn3)CC2)nc(N2CCN(C(=O)[C@H](CC(N)=O)n3cc(C(N)[C@@H](C)CC)nn3)CC2)n1 (stereo partly specified)	-26	3895
Cc1ccc(C2(c3ccccc3)NC(=O)N(CC(=O)NCc3ccco3)C2=O)cc1C (stereo unspecified)	5	3149
O=C(NCCc1ccccc1)c1ccc(NC(=O)C2CCC2)cc1	-51	2966
CC1c2ccccc2-n2nncc2CN1CC1CCCCC1 (stereo unspecified)	-3	3543
O=C(Nc1cccc(Br)c1)C1CC(=O)N(C2CCCC2)C1 (stereo unspecified)	6	2940
Cc1cccc(C(=O)O[C@H]2[C@H](C)NS(=O)(=O)[C@H]3CC4C=C[C@]23O4)c1	-9	2792
COc1cc(/C=N\NC(=O)c2ccc(-c3ccccc3)cc2)cc(OC)c1OC(C)=O	-4	9087
C[C@H]1CN([C@@H](C)CO)C(=O)c2cccc(NC(=O)c3ccncc3)c2O[C@H]1CN(C)C(=O)Nc1ccccc1	-7	3542
C[C@@]12C(=O)Nc3ccc(F)cc3C(=O)N1[C@H]1c3ccccc3OC[C@@H]1[C@@H]2c1ccccc1	-1	2815
O=C(COC(=O)c1ccc2ncsc2c1)Nc1ccc(OC(F)(F)F)cc1	-30	3421
Nc1nc(Sc2ccc([N+](=O)[O-])c3nonc23)c2[nH]cnc2n1	10	3840
CC(=O)OC(C)(C)/C=C/C(=O)[C@](C)(O)[C@H]1[C@H](O)C[C@@]2(C)[C@@H]3CC=C4[C@H](C[C@H](O)C(=O)C4(C)C)[C@]3(C)C(=O)C[C@]12C	79*	4039
COc1ccc([C@H](NC(=O)OC(C)(C)C)C(=O)OC(C)(C)C)cc1	-22	4190
CCN1C(=O)CCN(C2CCCC2)c2nc(Nc3ccc(C(=O)NC4CCN(C)CC4)cc3OC)ncc21	-19	3172
O=C1C=C(c2ccc(CO)cc2)C[C@@H](c2ccc3c(c2)OCO3)C1	-20	3558
CCCNC(=O)N1[C@H]2CC[C@@H]1C(C(=O)OC)=C(c1ccc(-c3ccccc3)c(F)c1)C2	-14	4180
O=C(Cc1ccccc1)N1CCN(Cc2ccc(Cl)cc2)CC1	6	3296
CC(CC(C)(C)N1CC1)=NO	-13	4149
COC(=O)[C@@H](N)Cc1ccc(O)c(O)c1	-10	4658
Cc1ccc(C(=O)NNC(=O)c2n[nH]c(=O)c3ccccc23)cc1C	-14	3914
C[C@H](CO)N1C[C@H](C)[C@@H](CN(C)S(=O)(=O)c2cn(C)cn2)Oc2c(NC(=O)Nc3ccc4c(c3)OCO4)cccc2C1=O	-18	4003
O=C(O)C(c1ccccc1)C1(O)CC2CCC1C2 (stereo unspecified)	-14	3868
CCC(CC)CN1CCC(CN2C(=O)C(=O)NC[C@@H]2[C@@H](C)CC)CC1	-37	4124
CN1OC[C@@H]2CN(Cc3ccccc3)[C@H](c3cccc(N4CCOCC4)c3)C[C@@H]21	-17	3657
COc1cccc2c1C1COC3C4CC(C(=O)O)C(C(C2)N13)N4C (stereo unspecified)	-16	3675
COc1ccc2c(c1)/C(=C/c1cc(OC)c(OC)c(OC)c1)C(=O)N2	64*	2825
O=C1NC(c2cccc3ccccc23)Nc2ccc(Cl)cc21 (stereo unspecified)	51	3428
CCOc1cccc(C2C(C(=O)c3ccc(C)o3)=C(O)C(=O)N2c2nnc(C)s2)c1 (stereo unspecified)	-1	4708
CCN1C[C@@H]2[C@@H]3C(=O)N(Cc4ccccc4)C(=O)[C@@H]3[C@](CC)(C1=O)N2C(=O)c1ccc(Cl)c(Cl)c1	0	3673
Next entries follow:
SMILES	PrP UTR inh	Autofluor counter
CC[C@H](C)[C@@H]1NC(=O)c2cc([N+](=O)[O-])cc(F)c2NCCCC[C@@H](C(N)=O)NC(=O)[C@H](CC(N)=O)NC1=O	-21	3422
Cc1ccc(C)c(Nc2nc3ccccc3[nH]2)c1	-2	3882
Cc1ccc(S(=O)(=O)/N=C(/Nc2ccc([N+](=O)[O-])cc2[N+](=O)[O-])c2ccccc2)cc1	-35	3879
CN(C)C(CNC(=O)c1cccs1)c1ccco1 (stereo unspecified)	-33	2957
C[C@@]12C(=O)N(CC3CCCO3)CC(=O)N1[C@H]1c3cc(Cl)ccc3OC[C@@H]1[C@@H]2c1ccccc1 (stereo partly specified)	-24	3844
C/C=C(\C)C(=O)OC1[C@H](OC(C)=O)C2(CO)C(CC1(C)C)C1=CCC3C4(C)CCC(O[C@@H]5O[C@H](C(=O)O)[C@@H](O[C@@H]6O[C@H](CO)[C@@H](O)[C@H](O)[C@H]6O)[C@H](O)[C@H]5O[C@H]5O[C@H](CO)[C@@H](O)[C@H](O)[C@H]5O)[C@](C)(CO)C4CCC3(C)[C@]1(C)C[C@H]2O (stereo partly specified)	-20	5890
CC(=O)c1cccc(-c2csc(N3CCC(C(N)=O)CC3)n2)c1	-5	3825
Cc1c(-c2ccccc2)c(-c2ccc(OCCN(C)C)cc2)n2ccccc12	-2	5245
Cc1cc(=O)[nH]c(N2CCCCC2)n1	18	4184
COc1cccc(/C=C2/CCC(CN(C)C)C2=O)c1 (stereo unspecified)	-34	3266
CCN1CCC(CN2CCNC2=S)CC1	-9	3570
O=C(C[C@@H]1C/C=C\C[C@@H](Cc2ccc(F)cc2)C(=O)OCCNC1=O)N[C@H](CO)Cc1ccccc1	-22	3703
CC(=O)c1ccc2c(c1)CC1(C2)Cc2cc3c(cc2C1)C(=O)CC3 (stereo unspecified)	-15	4028
COC(=O)C1=C(c2c(C)noc2C)C[C@@H]2CC[C@H]1N2C(=O)N1CCC(O)(c2ccc(Cl)cc2)CC1	0	3358
CC(C)CC(C)N (stereo unspecified)	2	6032
COc1ccc2c(c1)OC[C@H]1[C@H]2N2C(=O)CN(Cc3ccc(Cl)cc3)C(=O)[C@@]2(C)[C@H]1c1ccccc1	-14	4488
O=C(NCC1CCCO1)c1cccc2c1C(=O)c1ccc(N3CCC(Cc4ccccc4)CC3)cc1S2(=O)=O (stereo unspecified)	-10	5530
CC(=O)Nc1ccc(CCNC(=O)c2ccc3ccccc3c2O)cc1	36	2916
COC(=O)C1=C(c2cccc3c2S(=O)(=O)c2ccccc2-3)C[C@@H]2CC[C@H]1N2C(=O)N1CCc2cc(OC)c(OC)cc2C1	-17	3228
C=CCC[C@@H](Cc1ccc(F)cc1)C(=O)O[C@H](CNC(=O)[C@@H](CC=C)CC(=O)N[C@H](CO)Cc1ccccc1)c1ccccc1	-12	4056
COc1cc(/C=N/Nc2cccc(C)c2)cc(Br)c1O	-10	4257
O=C(O)c1ccccc1NC(c1ccccc1)c1ccc2cccnc2c1O (stereo unspecified)	-13	2930
C[C@@H]1COC(=O)[C@H](CC(=O)OC(C)(C)C)C/C=C\C[C@@H](CC(=O)N(CCO)Cc2ccccc2)C(=O)N1	-18	2906
C[C@H](CO)N1C[C@H](C)[C@@H](CN(C)C(=O)Nc2ccc(C(F)(F)F)cc2)Oc2ccc(NC(=O)Cn3cnnn3)cc2C1=O	-10	2971
O=c1/c(=C/c2ccc(O)c([N+](=O)[O-])c2)sc2nc3ccccc3n12	-31	4295

2 successive records already listed:
SMILES	PrP UTR inh	Autofluor counter
C[C@H](CO)N1C[C@H](C)[C@@H](CN(C)C(=O)Nc2ccc(C(F)(F)F)cc2)Oc2ccc(NC(=O)Cn3cnnn3)cc2C1=O	-10	2971
O=c1/c(=C/c2ccc(O)c([N+](=O)[O-])c2)sc2nc3ccccc3n12	-31	4295

(next part)
SMILES	PrP UTR inh	Autofluor counter
NCCNC(=O)Cc1ccc(NC(=O)Cc2ccc(Nc3ncnc4c3ncn4[C@@H]3O[C@H](CO)[C@@H](O)[C@H]3O)cc2)cc1	-31	5748
C[C@@]12C(=O)N(Cc3ccco3)CC(=O)N1[C@H]1c3cc(Cl)ccc3OC[C@@H]1[C@@H]2c1ccccc1	-12	3649
COC(=O)C1=C(c2ccc(F)cc2OCc2ccccc2)C[C@@H]2CC[C@H]1N2C(=O)NCc1ccc2c(c1)OCO2	-15	4127
CCc1cc2c(SCC(=O)Nc3ccc(Cl)cn3)ncnc2s1	2	2310
Cc1ccc(C)c(N2CCN(c3ncnc4c3cnn4-c3ccccc3)CC2)c1	-29	5791
O=C(CCCc1ccncc1)c1ccccc1	-60	4485
CCN(CC)S(=O)(=O)c1ccc(OCC(=O)NC(=O)Cc2ccccc2)c([N+](=O)[O-])c1	-13	3077
C/C(=N\NC(=O)c1ccccc1OCCOc1ccccc1)c1ccccc1F	-8	6575
COC(=O)CC(CC(=O)OC)n1cccc1	-13	2918
CCC12C(=Nc3c(Cl)cccc31)C[C@@H]1CCN3C(=O)CCC[C@H]2[C@H]13 (stereo partly specified)	-13	3605
COc1ccc(OC)c(/C=N/NC(=O)c2ccc[n+](CC(=O)c3ccccc3)c2)c1	-16	8976
CNC(=S)N(C)/N=C1/C(=O)N(Cc2c(Cl)cccc2Cl)c2ccccc21	-12	3483
CC(C)(CC(=O)c1ccccc1)CC(=O)c1ccccc1	-5	3504
COc1ccccc1NS(=O)(=O)c1cc(C(=O)N2CCN(C(=O)c3ccco3)CC2)ccc1F	3	3002
COC(=O)[C@@]12CCCCN1[C@H](c1ccc(-c3ccccc3)c(OC)c1)[C@H]1C(=O)N(C)C(=O)[C@H]12	-27	3742
C[C@H](CO)N1C[C@H](C)[C@@H](CN(C)C(=O)Nc2ccccc2)Oc2ccc(NC(=O)c3ccncc3)cc2C1=O	-16	3863
CCOC(=O)C1=CC[C@H]2c3c(c4ccccc4n3C)C(=O)C1N2Cc1ccccc1	13	3716

2 records picked at random from the list so far, as already listed:
SMILES	PrP UTR inh	Autofluor counter
COc1ccc(OC)c(/C=N/NC(=O)c2ccc[n+](CC(=O)c3ccccc3)c2)c1	-16	8976
Cc1ccc(C)c(N2CCN(c3ncnc4c3cnn4-c3ccccc3)CC2)c1	-29	5791

An excerpt, so the mix of outcomes need not match the whole.
